# Rce1 inhib – yeast Ras-converting enzyme inhibition; AID 2563; yeast membranes, quenched prenylated peptide cleavage fluorescence; Q03530; calls only; 290,000 compounds, 0.27% hits;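 active means fall in fluorescence gain of 50% or more versus controls, with final raw signal at or below 3038400; inconclusive means same 50% fall but final raw signal above 3038400; inactive means fall in fluorescence gain under 50%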;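 further: plate controls were neutral control wells for no effect and wells lacking membranes for full effect; tested at 10 µM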
# Target sequence (Q03530 whole entry, looked up): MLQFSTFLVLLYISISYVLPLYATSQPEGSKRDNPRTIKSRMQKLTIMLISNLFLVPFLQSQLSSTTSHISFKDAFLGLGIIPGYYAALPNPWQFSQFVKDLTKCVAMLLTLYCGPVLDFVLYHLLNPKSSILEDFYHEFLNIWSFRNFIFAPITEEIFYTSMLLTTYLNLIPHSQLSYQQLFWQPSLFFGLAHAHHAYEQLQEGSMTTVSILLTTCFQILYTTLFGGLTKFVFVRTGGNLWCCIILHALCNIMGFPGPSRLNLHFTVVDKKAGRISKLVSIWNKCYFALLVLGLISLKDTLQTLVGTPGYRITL
# MT1-MMP act inh – MT1-MMP (human) activation inhibition; P50281; HT1080 RFP-PRO-GFP cells, GFP/RFP ratio fluorescence, overnight; percent of plate control window, DMSO zero; GFP/RFP ratio change, % at 20 µM; 360,000 compounds, 0.061% hits; AID 651647;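 active means GFP/RFP ratio change of at least 30% with cell ATP level not reduced by more than half and red fluorescence within 50% of control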; further: strong numbers were not always called active
#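 Material – HT1080 RFP-PRO-GFP cells · Control set – DMSO wells and RFP-L50D-GFP cells · Incubation – overnight cell settling, then overnight compound exposure, 37 °C, 5% CO2 · Compound dosing – single-point 20 µM compound, 1% DMSO · Read-out – GFP/RFP fluorescence ratio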
# eIF4H inh – inhibitors of RNA binding by human eIF4H | eIF4H fluorescence polarization binding assay | inhibition, % at 35 µM | 290,000 compounds, 0.94% hits | AID 2012;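 active means 50% or more with normal probe brightness, or confirmed in later tests; inconclusive means above 50% with abnormal brightness, or retests that disagree; inactive means below 50% or failed in later tests; about a fifth of its hits are not listed in these tables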;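 further: calls also rest on retests at 20 µM and on dose response follow-up; 0% = protein and probe with vehicle and 100% = probe without protein; strong numbers were not always called active; many hits fall short of the cut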
# Yeast UUG start – alters start codon recognition fidelity in yeast; S. cerevisiae UUG-firefly luciferase reporter, luminescence/redox ratio; activity score, % at 18.7 µM; 350,000 compounds, 0.13% hits; AID 602363;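 active means replicate mean at a twofold rise or more, about +100% in these data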;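 further: firefly luciferase made from a UUG start codon reports start codon fidelity; reporter light over untreated wells divided by growth signal over untreated wells; some hits fall short of that in this replicate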
# PABP FP inh – blocks human PABP binding to poly(A) RNA. P11940. fluorescence polarization. inhibition, % at 35 µM. 290,000 compounds, 1% hits. AID 2014;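 active means 50% or more with normal probe brightness, or confirmed in later tests; inconclusive means above 50% with abnormal brightness, or retests that disagree; inactive means below 50% or failed in later tests; about a fifth of its hits are not listed in these tables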;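 further: calls also rest on retests at 20 µM and on dose response follow-up; controls were probe without protein and protein plus probe with vehicle; some compounds called inactive have numbers as strong as hits; many hits fall short of the cut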
# Target sequence (P11940 whole entry, looked up): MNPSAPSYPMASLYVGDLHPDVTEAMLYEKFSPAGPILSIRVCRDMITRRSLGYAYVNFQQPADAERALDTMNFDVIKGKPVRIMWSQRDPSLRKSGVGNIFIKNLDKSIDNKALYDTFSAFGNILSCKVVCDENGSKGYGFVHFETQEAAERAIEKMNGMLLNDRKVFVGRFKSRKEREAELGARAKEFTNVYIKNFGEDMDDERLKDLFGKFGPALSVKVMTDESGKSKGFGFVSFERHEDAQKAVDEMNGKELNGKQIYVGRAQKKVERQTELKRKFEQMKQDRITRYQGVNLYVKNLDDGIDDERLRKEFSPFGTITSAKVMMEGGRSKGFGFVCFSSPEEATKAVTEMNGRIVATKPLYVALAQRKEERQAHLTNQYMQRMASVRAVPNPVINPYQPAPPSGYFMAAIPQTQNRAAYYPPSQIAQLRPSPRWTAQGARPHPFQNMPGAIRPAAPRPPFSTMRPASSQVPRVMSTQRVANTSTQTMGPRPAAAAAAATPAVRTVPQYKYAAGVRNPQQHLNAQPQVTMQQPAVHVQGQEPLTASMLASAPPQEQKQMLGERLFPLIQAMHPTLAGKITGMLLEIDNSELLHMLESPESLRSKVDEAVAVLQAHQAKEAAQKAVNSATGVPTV
# CSC inhib – blocks cancer stem cells. cancer stem cell-like cells viability, luminescence. inhibition, % at 7.5 µM. 300,000 compounds, 1.1% hits;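 active means mean at 75% or more and at least half the replicates too; inconclusive means mean and replicates disagree; tested in HMLE shEcad cells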;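 further: 0% = median of negative and 100% = median of positive control wells; the first replicate is given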
# Env fusion inh – inhibitors of HIV Env-mediated cell fusion; HeLa-JRFL Env/CEM21 cell fusion, luciferase; inhibition, % at 12.3 µM; 360,000 compounds, 1.1% hits;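 active means mean replicate inhibition score of at least 50 and every replicate individually at or above 50; inconclusive means only one of the two criteria met; inactive means mean below 50 and not all replicates reaching 50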;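 further: 0% = plate neutral controls and 100% = maraviroc near 300 nM; one replicate is shown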
# MT1-MMP act inh RFP – recorded beside MT1-MMP act inh, whose call it bears; RFP signal change, %; measured here: RFP expression control read;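 0 = vehicle wells; hits needed this value within 50% of zero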
# The depositor's hits bear a star; i = inactive; ? = inconclusive; . = not tested or not shown; & = joins results of further samples; [ ] = dose if it differs, or a comment. An unsorted share of the library; any-hit rate near 2.9%.
# Each structure is followed by: Rce1 inhib, MT1-MMP act inh, MT1-MMP act inh RFP, eIF4H inh, Yeast UUG start, PABP FP inh, CSC inhib, Env fusion inh
> CCN(CC)C(=O)Cn1cc(C(=O)C2CC2)c2ccccc21
    i, 2.9, 7.2, -1.4, ., 8.0, ., 2.5
> O=C(NCc1ccc(F)cc1)c1ccc(Br)o1
    i, -0.8, 2.6, 2.5, -14.2, 8.2, -11.6, -6.1
> O=C(Nc1cccc(Cl)c1)N(CCCN1CCOCC1)Cc1ccccc1F
    i, -1.4, -0.1, -2.1, -1.6, 1.4, -2.6, .
> COc1ccc(-n2nc3ccccc3n2)cc1
    i, -3.7, -3.3, 0.2, -16.8, 0.9, ., -175.1
> Cc1cc(NC(=O)CN2CCC(O)(c3cccc(F)c3)CC2)no1
    i, 6.5, -2.1, -5.9, -11.0, 6.8, -3.4, 21.5
> Cc1ccc(NC(=O)CN(C)C(=O)c2cc3c(s2)CCCCC3)cc1
    ., -0.7, 0.8, ., -7.0, ., ., 7.6
> S=C(Nc1ccc(Br)cc1)NC1CCN(Cc2ccccc2)CC1
    i, 7.1, -3.8, -3.8, -24.3, -4.1, -7.4, -7.8
> O=C(/C=C/c1ccccc1[N+](=O)[O-])NNC(=O)c1ccncc1
    ., -3.7, -2.0, ., -17.0, ., ., -2.6
> CCCOC(=O)CCNc1n[nH]c(=O)[nH]c1=O
    i, 0.2, -1.7, -7.8, -24.3, 32.7, 2.6, -57.9
> Cc1ccc2nc(SCC(=O)Nc3cccc(S(=O)(=O)N(C)C)c3)[nH]c2c1
    i, 0.4, -8.3, 0.7, ., 0.2, 10.4, .
> Cc1ccc(C)c(NS(=O)(=O)c2csc(C(N)=O)c2)c1
    i, 5.1, -0.1, -5.5, ., 8.6, -8.3, -1.2
> CNc1c(C(=O)O)ccc2c1C(=O)c1ccccc1C2=O
    i, 34.3*, 17.6*, 24.1, ., 6.6, ., -17.7
> Cc1ccccc1NC(=O)Cn1nc(C)n2cccc2c1=O
    i, -3.2, 2.9, -8.9, -2.0, 8.3, -14.2, 7.7
> COC(=O)c1ccccc1N=Nc1c(C)noc1C
    i, -3.6, -4.4, 0.6, ., 2.7, 0.9, -23.6
> CCc1ccccc1NC(=O)CSc1nc2[nH]c(=O)cc(O)c2s1
    ., ., ., -16.7, -0.7, 1.0, -1.0, -77.1
> COc1ccc(-c2nnc(CSc3nnc(-c4ccncc4)n3C3CCCCC3)o2)cc1OC
    i, 4.1, -1.5, -4.0, -4.7, -14.2, 5.1, 5.3
> Cc1noc(C)c1COC(=O)c1cnc(Cl)c(Cl)c1
    i, -0.8, 1.9, 0.5, ., 11.7, 10.3, -18.4
> Cn1c(=O)oc2cc(S(=O)(=O)NCCC(=O)N3CCc4ccccc43)ccc21
    i, 7.6, 2.6, -3.2, -10.6, -7.0, -9.3, -14.3
> CCC(C)NC(=O)CSc1nnc(-c2ccc(C(C)(C)C)cc2)n1C (stereo unspecified)
    i, 1.2, -2.7, -5.1, 3.0, -0.3, 0.6, -31.9
> O=C(Nc1ccc(C(F)(F)F)cc1)c1cnc(N2CCN(c3ccccn3)CC2)c2ccccc12
    i, -3.3, -7.1, 7.8, ., 9.4, 3.2, 28.1
> COc1cc(OC)c(CNC2CCCCCC2)cc1Br
    i, 4.5, 6.7, -2.6, ., 3.2, 6.2, -3.5
> Cc1ccc2c(c1)N(CC(=O)NC1CCCC1)C(=O)C(C)O2 (stereo unspecified)
    i, 2.4, 0.9, -10.4, -5.8, -3.5, -7.1, 3.1
> CN(C(=O)CSc1nnc(-c2ccc(Cl)cc2)n1CC1CCCO1)C1CCS(=O)(=O)C1 (stereo unspecified)
    i, -1.8, -4.9, -0.9, -2.1, -0.1, -1.7, -6.3
> CCOC(=O)c1cccc(NC(=O)CNS(=O)(=O)c2cccs2)c1
    i, -2.7, -0.4, 11.3, 12.2, -9.7, 0.0, -47.2
> CC1CCCN(CCC(=O)Nc2ccc(Br)cc2)C1 (stereo unspecified)
    i, 5.0, 0.2, -5.0, 3.3, 2.2, -3.7, .
> CC1(C)C(=O)Nc2ccccc2N1C(=O)CN1C(=O)NC(CCc2ccccc2)C1=O (stereo unspecified)
    i, -3.6, -4.8, 6.4, ., -11.9, 2.4, 15.9
> Cc1ccc(C(=O)OCC(=O)Nc2cccc(Br)c2)s1
    ., -2.4, 4.3, ., -22.9, ., ., -0.5
> CC(=O)Nc1ccc(NC(=O)COc2ccc(-c3ccccc3)cc2)cc1
    i, 1.2, 4.3, -1.2, -9.1, 8.7, 12.8, -29.6
> CC1C2NC(=O)N(Cc3ccccc3)C1(C)Oc1ccccc12 (stereo unspecified)
    i, -1.9, -2.4, -1.3, ., -8.9, -3.3, 15.7
> CCOC(=O)c1cc2c(=O)n3ccccc3nc2n(Cc2ccco2)c1=NC(=O)c1ccc(OC)cc1OC
    i, -14.6, -1.7, 22.3, ., -8.4, ., 34.2
> CSc1ccc(Cl)c(C(=O)Nc2nccs2)c1
    i, 3.3, 1.1, -0.5, ., -2.2, 11.1, -10.3
> O=C(NC1CCCC1)C1CCCN(S(=O)(=O)c2ccc(F)cc2)C1 (stereo unspecified)
    i, 1.2, 0.7, -4.3, -6.1, -2.9, 9.2, -4.2
> COc1ccc(/C=N/n2c(=O)[nH]c3c([nH]c4ccc(Cl)cc43)c2=O)cc1CN1CCCCC1
    ., 1.4, 0.1, -11.9, 2.3, -35.8, -8.8, 15.1
> COc1ccc(C(=O)NCCCC2CCCC2)cc1OC1CCN(C(C)C)CC1
    ., 2.0, 2.9, ., -12.2, ., ., 4.2
> CNC[C@H]1Oc2c(NC(=O)C3CCCCC3)cccc2C(=O)N([C@H](C)CO)C[C@@H]1C
    ., 3.1, -1.1, ., -6.9&-6.5, ., 1.2, 6.8[16.7 µM]
> CC(OC(=O)c1snc(C(=O)NC2CCCCC2)c1N)C(=O)NC(C)(C)C (stereo unspecified)
    i, 15.9, -14.3, 1.8, 21.3, -5.2, -2.9, ?
> CC(C)CN(C(=O)Cn1c(=O)cnc2ccccc21)C1CCS(=O)(=O)C1 (stereo unspecified)
    i, -3.0, -2.8, ., ., ., -5.1, -9.8
> CCN(CC)c1ccc(C2C(C(=O)OC)=C(C)NC(C)=C2C(=O)OC)cc1
    i, -7.1, -3.0, -6.9, -14.4, -6.6, 7.5, 23.6
> CCOC(=O)/C=C1\Nc2ccccc2OC1=O
    i, 1.9, 4.0, 29.3, ., 31.3, 4.2, 26.8
> Cn1c(=O)c2c(SCC(=O)N3CCOCC3)nc(-c3ccccc3F)nc2n(C)c1=O
    i, -0.7, -2.1, 4.8, -2.1, -5.5, -12.3, 0.8
> CC1CCC(NC(=O)CSc2nncn2C)CC1 (stereo unspecified)
    ., 2.0, 4.5, ., -17.3, ., -11.5, -7.4
> O=C(C[C@@H]1C/C=C\C[C@H](Cc2ccc(F)cc2)C(=O)OCCNC1=O)N[C@H](CO)Cc1ccccc1
    ., 1.9, -2.7, ., 7.4, ., ., -13.1
> CCOP(=O)(c1ccccc1)c1nc(-c2ccccc2C)oc1N1CCCCC1 (stereo unspecified)
    i, ., ., 1.4, ., -1.3, 43.2, .
> O=S(=O)(c1ccccc1)c1nc(NC2CC2)sc1Cl
    ., -1.3, -9.1, 3.4, -14.3, 9.2, 3.5, 2.9
> O=C1CC(NCC2CCCO2)C(=O)N1c1ccc(F)cc1 (stereo unspecified)
    i, 0.0, 2.9, 2.1, ., 2.4, 10.1, 6.8
> CC(CCCCC(=O)Nc1ccc(C(F)(F)F)cc1)NCCc1cnc[nH]1 (stereo unspecified)
    i, ., ., 1.1, ., 8.2, -13.2, .
> FC(F)(F)c1ccc(/C=N/N2CCN(Cc3ccccc3)CC2)cc1
    i, 3.2, -4.8, -1.2, 3.0, -4.1, -10.8, -3.3
> CN(CC(=O)NCCc1ccc(F)cc1)Cc1cccs1
    i, -4.9, 2.7, -1.7, ., -6.3, -11.5, -48.3
> CC(=O)c1ccc(OCC(O)CN2CCN(S(=O)(=O)c3c(C)c(C)cc(C)c3C)CC2)cc1 (stereo unspecified)
    i, 2.1, -4.9, -10.9, 4.8, 3.3, 13.8, -1.1
> CN1OC[C@@H]2CN(C(=O)CCc3ccccc3)[C@H](c3ccc(-n4ccnc4)cc3)C[C@@H]21
    ., 1.4, 4.2, ., -4.5, ., ., 4.2
> COc1ccc(N2CCN(S(=O)(=O)CCNC(=O)c3ccc4c(c3)OCO4)CC2)cc1
    i, -0.4, -4.4, ., -12.2, ., -12.8, -40.4
> O=C(N/N=C/c1ccc(O)c(O)c1)C1c2ccccc2Oc2ccccc21
    i, 1.3, -2.0, 3.1, -6.5, 15.3, 30.0, .
> CC(C)C(C(=O)Nc1ccc(S(N)(=O)=O)cc1)N1C(=O)c2ccccc2C1=O (stereo unspecified)
    i, -2.1, 1.8, -1.6, 2.2, -16.3, 8.8, -6.6
> CCOC(=O)C1=C(C)Nc2ccccc2S1
    i, -2.3, 0.1, 0.5, -19.2, 6.3, -9.1, -8.1
> Cc1ccc(C(=O)Nc2nnc(COc3ccccc3)s2)cc1
    i, 0.2, 6.5, 2.1, ., 6.7, -3.2, -2.0
> Cc1cccc(C(=O)NC(=S)NNC(=O)Cc2ccccc2)c1
    i, 5.4, -0.2, 9.8, ., 4.0, -7.5, 17.6
> COc1ccc(-c2oc3ncnc(NCCCO)c3c2-c2ccc(OC)cc2)cc1
    i, -8.2, -6.3, -3.5, -5.2, 7.6, 9.2, 7.4
> CCCn1c(CCC(=O)O)ccc1-c1ccc(OC)cc1
    i, -25.7, 2.2, 53.0*, -13.9, 61.7*, 14.1, .
> CC(C)=NNC1=NC(C)(C)Cc2ccccc21
    i, -5.4, 0.3, -12.8, -13.3, 6.3, 3.7, 1.4
> NC(=O)CN1C(=O)C2C3c4ccccc4C(c4ccccc43)C2C1=O (stereo unspecified)
    i, 6.9, 5.9, -6.5, -2.8, -8.2, 2.4, .

# Next structures follow:
# Each structure is followed by: Rce1 inhib, MT1-MMP act inh, MT1-MMP act inh RFP, eIF4H inh, Yeast UUG start, PABP FP inh, CSC inhib, Env fusion inh
> O=C(NCc1ccco1)/C(=C/c1cccc(C(F)(F)F)c1)c1nc2ccccc2[nH]1
    i, -21.6, -10.9, 21.6, -1.2, -5.7, ., 29.8
> CC1=CC(C)(C)Nc2ccc(OC(=O)C(Cc3ccccc3)N3C(=O)c4ccccc4C3=O)cc21 (stereo unspecified)
    i, -101.0, 5.5, -6.4, -10.7, -4.1, 20.5, .
> O=C(Oc1c(CN2CCOCC2)cc(Cl)c2cccnc12)c1ccccc1Br
    i, -5.6, -3.6, 6.3, -9.6, -2.9, 19.0, 5.9
> CC1CCCCN1Cc1c(O)ccc2c(=O)c(-c3ccc(Cl)cc3)coc12 (stereo unspecified)
    i, -1.0, -5.5, -4.6, -11.3, -13.1, -12.0, 2.8
> O=C(CSc1nc2[nH]ncc2c(=O)[nH]1)NCCc1ccccc1
    i, -11.7, -1.4, 2.3, ., -3.3, 1.2, 21.1
> Cc1ccc(C(=O)OCC(=O)c2ccccc2)cc1
    i, -1.1, 1.0, 3.0, -41.0, 1.7, 11.1, -85.0
> N#Cc1cccc(N=Cc2c(O)ccc3ccccc23)c1
    i, 6.0, 3.0, -1.6, ., 1.3, -1.7, -2.0
> O=C1CC(c2ccccc2)CC(O)=C1C=Nc1ccccc1O (stereo unspecified)
    i, 0.3, -2.3, 3.2, ., -5.3, -1.6, -3.7
> CCn1c(SCC(=O)c2ccc(C)cc2)nnc1-c1ccoc1C
    i, -1.7, 2.8, 1.3, -14.3, 3.4, 6.3, 6.7

# From PubChem
